# Screens deposited in PubChem by ICCB-Longwood Screening Facility, Harvard Medical School.
# fixLJ activator = activators of Burkholderia fixLJ two-component system, primary screen, B. multivorans, GFP reporter; B. multivorans fixK-promoter GFP reporter, 18 h; stronger effect = higher value; z-score (concentration not given with the values); hit rate 0.3% among 29,000; AID 1918990, 2023;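 active means replicate mean overnight rise in green fluorescent reporter signal, 3 or more SD over negative controls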;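 further: score is relative to vehicle wells of the plate; 300 nL library stock went into each well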
# * hit, by the source's call; & = joins results of further samples.
molecule | fixLJ activator
CCCc1cc(=O)oc2cc(C)c3c(-c4ccccc4)c(C)oc3c12 | -0.13
CCOC(=O)c1sc(N2C(=O)c3oc4ccc(F)cc4c(=O)c3C2c2ccc(O)cc2)nc1C (stereo not given) | -0.54
CCOCCCNc1nc2c(S(=O)(=O)c3ccc(CC)cc3)nnn2c2ccc(Cl)cc12 | -0.16
COc1ccc(OC)c(CNC(=O)c2cc3c(=O)oc4ccc(C)cc4c3s2)c1 | 0.17
COc1ccc(-c2[nH]c(-c3ccc(OC)c(OC)c3)nc2SCC(=O)Nc2ccccc2)cc1 | -1.7
COC(=O)c1cc(NC(=O)Nc2ccc3snnc3c2)cc(C(=O)OC)c1 | -0.31
Cc1nc(C)c(CC(=O)NCCc2nc3c(s2)CCC3)c(=O)[nH]1 | -0.2
COc1cccc(Oc2ccc(NC(=O)CCn3nnnc3C)cn2)c1 | 0.45
CCC(O)C(=O)N1CCC(CNC(=O)c2cnccn2)CC1 (stereo not given) | -0.26
Cc1ccccc1Nc1nnc(-c2ccc(C)c(S(=O)(=O)NCC3CCCO3)c2)c2ccccc12 (stereo not given) | -0.36
O=C(O)c1sc(Nc2ccccc2)nc1-c1ccccc1 | -0.12
CCOc1ccc(S(=O)(=O)N(CC(=O)NCCSCc2ccc(C)cc2)c2ccccc2)cc1 | -1
COc1ccc(/C=C/C(=O)Nc2cc(-c3nc4ccccc4o3)ccc2OC)cc1 | 1.3
Cc1ccccc1NC(=O)Cn1c(=O)n(-c2ccc(CC(=O)NCC3CCCO3)cc2)c(=O)c2ccccc21 (stereo not given) | -0.98
CCc1ccccc1NC(=O)c1cc2c(Cl)nc3ccccc3c2s1 | 0.49

# In the list so far, these contain four or more nitrogen atoms.
molecule | fixLJ activator
CCOCCCNc1nc2c(S(=O)(=O)c3ccc(CC)cc3)nnn2c2ccc(Cl)cc12 | -0.16
COC(=O)c1cc(NC(=O)Nc2ccc3snnc3c2)cc(C(=O)OC)c1 | -0.31
Cc1nc(C)c(CC(=O)NCCc2nc3c(s2)CCC3)c(=O)[nH]1 | -0.2
COc1cccc(Oc2ccc(NC(=O)CCn3nnnc3C)cn2)c1 | 0.45
CCC(O)C(=O)N1CCC(CNC(=O)c2cnccn2)CC1 (stereo not given) | -0.26
Cc1ccccc1Nc1nnc(-c2ccc(C)c(S(=O)(=O)NCC3CCCO3)c2)c2ccccc12 (stereo not given) | -0.36
Cc1ccccc1NC(=O)Cn1c(=O)n(-c2ccc(CC(=O)NCC3CCCO3)cc2)c(=O)c2ccccc21 (stereo not given) | -0.98

# Next part
molecule | fixLJ activator
Cn1cccc1-c1cc(C(=O)NCc2noc(-c3c(F)cccc3F)n2)[nH]n1 | -0.41
O=C(c1ccc2c(c1)N(Cc1ccc(Cl)cc1)C(=O)c1ccccc1S2=O)N1CCOCC1 (stereo not given) | -0.42
COc1ccc2c(c1)CCc1c(C(=O)Nc3c(C)nn(Cc4ccccc4Cl)c3C)noc1-2 | 0.31
COC(=O)N1CCCc2cc(S(=O)(=O)N3CCN(c4ccccc4)CC3)ccc21 | 0.6
CCn1c2ccccc2c2cc(NC(=O)COc3ccc(C)c(C)c3)ccc21 | -0.2
CCCCNC(=O)C1CCCCC1C(=O)N(C)Cc1cc(C)cc(C)n1 (stereo not given) | -0.44
Cc1nc(=O)[nH]c(C)c1CCC(=O)N1CCOc2ccc(CO)cc2C1 | 0.01
Cc1ccc(C)c(N2CCN(CCCNC(=O)Nc3ccc(Cl)cc3)CC2)c1 | -4.5
Cc1ccc(C)n1-c1nnc(N2CCCC(C(=O)NCc3cccc(Cl)c3)C2)s1 (stereo not given) | -0.39
COc1ccc(OC)c(CN(C(=O)c2ccnc(OC)c2)C2CCCC2)c1 | -1.8
Cc1nn2c(=O)cc(COc3ccc(/C=C(\C#N)C(=O)Nc4ccccc4)cc3Cl)nc2s1 | 0.5
COc1ccccc1CNS(=O)(=O)c1ccc2c(c1)NC(=O)CC(=O)N2 | -0.25
Cc1cccc(Cn2c(=O)n(Cc3ccccc3)c(=O)c3sc4ccccc4c32)c1 | -0.67
CN1CC(NC(=O)c2onc3ncccc23)c2sccc2S1(=O)=O (stereo not given) | -0.39
CNC(=O)c1ccc(S(=O)(=O)NCCCc2cccc(OC)c2)cc1 | -2.1
CCC(NC(=O)c1cc(OC)cc(C(=O)O)c1)c1ccnn1C (stereo not given) | -0.57
COc1cc(NC(=O)c2cc3nc(-c4ccccc4)cc(-c4ccccc4)n3n2)c(OC)cc1Cl | -1.7
Cc1cc(C)cc(NC(=O)Cn2c(-c3cncs3)nc3ccccc32)c1 | -8.9
CCC(=O)N1CCC(C(=O)NC(C)C(=O)Nc2ccc(F)cc2C)CC1 (stereo not given) | -0.31
COc1ccc(-c2noc(CNC(=O)c3ccccc3Br)n2)cc1 | -2.3
O=C1CC(c2ccccc2)Cc2[nH]c(=O)c(-c3nc(-c4ccc(Cl)c(Cl)c4)cs3)cc21 (stereo not given) | -0.6
Cc1cccc(Cn2cc(/C=C(/C#N)C(=O)Nc3cccc(Cl)c3)c3ccccc32)c1 | 1.7
COc1cc(Cl)c(S(=O)(=O)N2CCN(c3c(C)cccc3C)CC2)cc1Cl | 0.05
CC(C)(C)C1CCC(C(=O)NC2COCC2Cc2ccncc2)CC1 (stereo not given) | -0.67
CCCCNC(=O)NS(=O)(=O)c1ccc(C)cc1 | -1.9&-1.7
Cc1cc2nc(-c3ccc(Br)cc3)cc(C(F)(F)F)n2n1 | -2.4
Cc1[nH]c2ccc(CNC(=O)CCc3nc4cccnc4n3C)cc2c1C | -1.8
Cc1[nH]c(=O)c(C#N)cc1-c1ccncc1 | -1.2
CCOC(=O)c1c(NC(=O)c2nc(S(C)(=O)=O)ncc2Cl)sc(C(C)=O)c1C | 0.42
CNc1nc(C)cc(N2CCCC3(CCC(=O)N(CCC(C)C)C3)C2)n1 (stereo not given) | 0.02
CCCOc1ccc(C(=O)Nc2cccc(NC(=O)c3ccc(Cl)cc3Cl)c2)cc1 | 0.74
CCOC(=O)c1c(C)n(-c2ccccc2)c2ccc(OC(=O)c3cccc(OC)c3OC)cc12 | 0.93
Cc1ccc(C)c(OCC(=O)Nc2sc3c(c2C#N)CCCC3)c1C | 0.9
Cc1nn(-c2ccccc2)c2sc(C(=O)Nc3ccc(Cl)cc3Cl)cc12 | 0.84
CCCCS(=O)(=O)c1oc(-c2cccs2)nc1S(=O)(=O)c1ccccc1 | -0.46
Cc1c(CNC2CCCCC2)c(C(=O)O)c(C)n1Cc1cccc(Cl)c1 | -1.7
Cc1ccc2nc(N3CCN(c4cccc(C)c4C)CC3)c3nncn3c2c1 | -0.17
Cc1cc(CC(C)NC(=O)Nc2ccc(Cc3n[nH]c(C)n3)cc2)n[nH]1 (stereo not given) | -2.1
COc1ccc(-c2ccc(CCC(=O)O)n2CC(=O)Nc2cccc(C(F)(F)F)c2)cc1 | -2.6
Cc1nn(C)c(C)c1CN(CCO)C(=O)c1cn2c(C)cccc2n1 | 0.32
CCOCCCn1c(=N)c(C(=O)NC2CCCC2)cc2c(=O)n3cccc(C)c3nc21 | -1.6
Cc1ccc(NCc2cccn2-c2nnc(N3CCC(C(=O)NCc4ccc(F)cc4)CC3)s2)cc1 | -0.02
C=CCC1(OC)CCN(C(=O)Nc2ccc3[nH]ncc3c2)CC1 | -0.64
CCCCN(Cc1cccc(Cl)c1)C(=O)c1cncc(O)c1 | -2
Cc1ccc2c(c1)C(c1ccc(F)cc1)N(C(=O)c1ccc(OC(C)C)cc1)CC(=O)N2 (stereo not given) | 0.76
COc1ccc2[nH]cc(CCNC(=O)Nc3cc(C)cc(C)c3)c2c1 | -0.35
CCOc1ccc(-c2cc(NC(=O)c3ccc(C)cc3)c(C(=O)OC)s2)cc1 | -1
COc1ccc2nc3oc(C(=O)N(C)c4ccc(Cl)cc4)cc3cc2c1 | -2
CC(C)N1CCC(CC(=O)N2CCC(O)[C@@]3(CCCNC3=O)C2)CC1 (stereo not given in full) | -1.2
CC(C)CC(=O)NC1CCOCC1Oc1ccc(C(=O)O)cc1 (stereo not given) | -0.52
COc1ccc(NC(=O)Cn2c(=O)n(CC3CCCO3)c(=O)c3ccccc32)cc1 (stereo not given) | -2
Cc1ccc(NC(=O)c2ccc3c(c2)NC(=O)c2ccccc2S3)c(Cl)c1 | -1.2
Cc1cccc(N2CCN(Cc3nnc(-c4cccc(Br)c4)o3)CC2)c1C | -0.64
O=C(O)c1[nH]cnc1C(=O)N1CCN(C2Cc3ccccc3C2)CC1 | -0.39
Cc1ccc(C)c(N2CCN(C(=O)c3cc4c(=O)oc5ccccc5c4s3)CC2)c1 | -0.95
COc1cc2c(cc1OC)C1(CCN(C(=O)C(C)Cn3cccn3)CC1)OCC2 (stereo not given) | -0.06
O=c1c2sc3ccccc3c2n(Cc2cccc(Cl)c2)c(=O)n1Cc1ccc(F)cc1 | -0.47
COc1ccc(N2CCN(Cc3nnc(-c4cccc(Br)c4)o3)CC2)cc1 | -0.42
Cc1ocnc1C(=O)N1CCCCC1CCN1CCCC1=O (stereo not given) | -4.2
COc1ccc(NC(C)=O)cc1NC(=O)N1CCC(c2ccncc2)CC1 | -0.03

# (more compounds)
molecule | fixLJ activator
Cc1ccc(S(=O)(=O)Nc2cc3c(cc2NCc2ccccc2)n(C)c(=O)n3C)c(C)c1 | -0.45
CC(CNC(=O)c1ccc(CSc2nc3ccncc3n2Cc2cccc(F)c2)cc1)c1ccccc1 (stereo not given) | -2.3
CCCCOC(=O)CSc1ncnc2sc3c(c12)CCC(C)C3 (stereo not given) | 0.06
Cc1ccsc1-c1nccn1Cc1noc(Cc2ccccc2)n1 | -2.7
CN(Cc1noc(C2CCC2)n1)C(=O)NCCCC(C)(C)C | -0.16
CCOC(=O)Cn1nc(C)c(NC(=O)COc2ccc(Cl)cc2C)c1C | -1.2
COc1cccc(C(=O)Nc2ccc3nc4n(c(=O)c3c2)CCCCC4)c1 | -1.6
CS(=O)(=O)c1ccc(C2=C(c3ccccc3)C(=O)OC2)cc1 | -1.2&-0.46
O=C(c1ccc(CS(=O)(=O)c2c(Cl)cccc2Cl)o1)N1CCN(c2ccccc2)CC1 | 0.27
CN(Cc1ccccc1)S(=O)(=O)c1cc(Br)cc2c1N(C(=O)C1CC1)CC2 | -0.63
COCCCN1CC2(CCC1=O)CCN(C(=O)c1ccc(O)c(C)c1)CC2 | -1.3
NCC[C@@H](O)C(=O)N[C@@H]1C[C@H](N)[C@@H](O[C@H]2O[C@H](CN)[C@@H](O)[C@H](O)[C@H]2O)[C@H](O)[C@H]1O[C@H]1O[C@H](CO)[C@@H](O)[C@H](N)C1O (stereo not given in full) | -0.45
COc1cc(OC)c(N(C)C(=O)c2cc3c(=O)oc4ccccc4c3s2)cc1Cl | -1.1
Cc1nc2c(c(N(C)C)n1)CCN(C(=O)c1cc3ccccc3[nH]c1=O)C2 | -0.98
Cc1ccc2oc(-c3ccc(Cl)c(NC(=O)c4ccc(-c5ccccc5[N+](=O)[O-])o4)c3)nc2c1 | 0.2
CC(C)c1nc(CCNC(=O)N2CCC(Oc3cccnc3)CC2)no1 | 0.95
CC1=CCN(C(=O)c2csc(-n3nc(C)cc3C(F)(F)F)n2)CC1 | -1.4
COc1ccccc1CCNC(=O)Cc1c(C)c2ccc(O)cc2oc1=O | -2
COc1ccc(NC(=O)CSc2nc3c(oc4ccccc43)c(=O)n2-c2ccccc2)cc1OC | -0.29
COc1ccc(C2CC(=O)c3c(C)nc(N4CCN(C=O)CC4)nc3C2)c(OC)c1 (stereo not given) | -2.6
Cc1nc2c(C(=O)NCCc3ccccc3)c[nH]n2c(=O)c1Cc1ccc(F)cc1Cl | -1.6
O=C(c1nc2ccccc2[nH]1)N1CCC(N2CCc3ccccc3C2)CC1 | -1.2
Cc1nonc1CNC(=O)C1CCCN1C1CCN(C)CC1 (stereo not given) | -1.2
Cc1cccc(C(=O)Nc2cccc(OCc3cc(=O)n4cc(C)sc4n3)c2)c1 | -2.1
Cc1oc(-c2ccn[nH]2)cc1S(=O)(=O)N1CCCC(C(=O)CC(C)C)C1 (stereo not given) | -0.7
O=C(Nc1ccc(F)cc1)c1ccc2c(c1)NC(=O)c1ccccc1S2 | -0.16
CCc1ccc(C(=O)c2cn(CC(=O)Nc3ccc(OC)cc3OC)c3ccc(CC)cc3c2=O)cc1 | -1.1
CCCn1c(=N)c(C(=O)NC2CCCC2)cc2c(=O)n3cc(C)ccc3nc21 | -1.5
CN(C)CCC1CCCN(C(=O)c2cccn3cnnc23)C1 (stereo not given) | -1.5
Cc1ccc(Cn2c(=O)n(Cc3ccccc3Cl)c(=O)c3cccnc32)cc1 | -0.05
CCCC(=O)Nc1cc(-c2nnc3c4ccccc4c(C)nn23)ccc1C | -2.6
COc1ccc(OC)c(-n2c3c(cc(-c4nc(-c5ccc(Cl)cc5)cs4)c2=O)C(=O)CC(C)(C)C3)c1 | -0.26
CCOc1ccc(S(=O)(=O)N2CCC(O)C(C(=O)O)C2)cc1 (stereo not given) | -0.18
COc1cccc2c1C(=O)c1c(O)c3c(c(O)c1C2=O)C[C@@](O)(C(=O)CO)C[C@@H]3OC1C[C@H](N)[C@H](O)[C@H](C)O1 (stereo not given in full) | -17
CCOC(=O)c1cnc2cc(C(F)(F)F)ccc2c1Nc1ccc(F)cc1F | 0.24
COc1cccc(C2C(C(=O)Nc3ccc(C)cc3C)=C(C)Nc3nc4ccccc4n32)c1OC (stereo not given) | -0.21
CCOC(=O)c1ccc2c(c1)[C@@H]1C=CC[C@@H]1[C@H](c1cccc(OC)c1OC)N2 | -1.3
COc1ccc(OC)c(NC(=O)Cn2c(=O)n(-c3ccc(Cl)cc3)c(=O)c3c(C)c(C)sc32)c1 | 1

# A portion of the library; the hit share may differ from the screen's.
